StopGo reporter – FMDV 2A StopGo reporter, luciferase signal. human cells with a luciferase reporter of 2A StopGo recoding; control for the full effect not named in the record. Potency, µM (top dose mostly 57.9 µM), for inactives: at the top dose signal change, negative = less light. 410,000 tested, 1.2% active. AID 1159524; active = well fitted falling curve with a large enough effect; inconclusive = small, poorly fitted or top-dose-only effect; inactive = no such curve, though single readings can be large or run the other way; tested in HEK293T cells; further: on the % scale 0 is the no-effect control and ±100 the full control effect; nearly all actives have a fitted effect of over 45% in size; luciferase light after 4 h
MARV entry inh – Marburg virus entry inhibition. Marburg virus pseudotyped entry inhibition, cell reporter; control for the full effect not named in the record; about a third of the inactives were read at about 46 µM. Potency, µM (series often up to 37.8 µM), for the others: at the highest dose activity change, negative = inhibition, actives largely listed as inhibitors. 300,000 tested, 1.8% active; active = well fitted inhibition curve with a large enough effect; inconclusive = small, poorly fitted or top-dose-only effect, or effect the other way; inactive = flat fitted curve, though single readings scatter; tested in HEK293 cells; about a fifth of its hits are not listed in these tables; further: on the % scale 0 is the no-effect control and ±100 the full control effect; luciferase read-out
RE007 growth inh – less growth of the S. pombe RE007 Vpr strain | S. pombe RE007 Vpr strain, BacTiter-Glo ATP luminescence, 24 h; control for the full effect not named in the record | Potency, µM (series often up to 92.2 µM), for inactives: at the top dose activity change, negative = less growth | 360,000 tested, 0.21% active | AID 651644; active = well fitted falling curve with a large enough effect; inconclusive = small, poorly fitted or top-dose-only effect; inactive = no such curve, though single readings can be large or run the other way;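 further: on the % scale 0 is the no-effect control and ±100 the full control effect; nearly all actives have a fitted effect of over 50% in size; the assay follows cell death caused by Vpr and the record does not say whether a fall means rescue or toxicity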
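Fission yeast RE007 carrying one integrated HIV-1 vpr copy, seeded at OD 0.01 in PMG+AL medium with 23 nL pinned compound. Grown 24 h at 30 degrees; viability read by BacTiter-Glo luminescence after 5 min.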
NS1 function inh – blocks influenza NS1 protein function | S. cerevisiae slowed by influenza A NS1, growth recovery by OD600 | Potency, µM (series often up to 46.1 µM), inactives show at the top dose activity, positive = more growth | 270,000 tested, 0.4% active | AID 2326; active means well fitted rising curve with a large enough effect; inconclusive means small, poorly fitted or top-dose-only effect; inactive means no such curve, though single readings can be large or run the other way; further: nearly all actives have a fitted effect of over 50% in size
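In this qHTS, NS1 from influenza A is expressed in budding yeast, where it slows growth. Cells are switched from glucose to 2% galactose medium (pH 6.0, -URA), treated with compound, and growth recovery is read at OD600.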
Cruzain noTriton – blocks cruzain activity in detergent-free assay. P25779. purified cruzain, Z-FR-AMC fluorescence, no detergent. Potency, µM, without a hit: max response, negative = inhibition, usual class: inhibitors. 200,000 tested, 2.3% active. AID 1476;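 further: plate controls were enzyme without inhibitor for no effect and buffer without enzyme for full effect; nearly all actives have a fitted effect of over 40% in size; top concentration of the series not given in the record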
Target sequence (P25779 123-467 limits assumed): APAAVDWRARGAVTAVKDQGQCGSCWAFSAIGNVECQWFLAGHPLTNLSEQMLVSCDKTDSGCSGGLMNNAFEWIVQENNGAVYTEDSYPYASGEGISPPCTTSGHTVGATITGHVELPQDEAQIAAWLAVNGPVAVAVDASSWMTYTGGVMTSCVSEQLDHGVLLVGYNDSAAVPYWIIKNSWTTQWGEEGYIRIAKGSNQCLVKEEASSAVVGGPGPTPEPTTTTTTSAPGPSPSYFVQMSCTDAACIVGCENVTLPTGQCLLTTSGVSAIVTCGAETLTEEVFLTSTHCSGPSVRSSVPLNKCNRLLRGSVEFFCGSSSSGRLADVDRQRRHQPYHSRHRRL
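Detergent-free condition (0.00005% Triton X-100) in acetate buffer pH 5.5 with DTT. 1.5 nM enzyme and compound were pre-mixed 15 min, then 2 uM Z-FR-AMC substrate added; reaction progress from fluorescence change between first and third reads (60 s).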
Cruzain inh Det – cruzain (T. cruzi) inhibition with detergent. P25779. purified cruzain, Z-FR-AMC fluorescence, 0.01% Triton. Potency, µM, without a hit: max response, negative = inhibition, actives largely listed as inhibitors. 200,000 tested, 0.43% active;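 further: plate controls were neutral wells for no effect and buffer without enzyme for full effect; nearly all actives have a fitted effect of over 40% in size; top concentration of the series not given in the record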
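Compounds were screened in titration against cruzain (1.5 nM) with 0.01% Triton X-100 to counter colloidal aggregation. Activity was the AMC fluorescence increase over 60 s after adding 2 uM Z-FR-AMC at pH 5.5.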
LASV entry inh – inhibitors of Lassa virus binding or cell entry; Lassa virus pseudotype entry inhibition, cell reporter; control for the full effect not named in the record; Potency, µM (top dose mostly 37.9 µM), for the others: top-dose activity change, negative = inhibition, usual class: inhibitors; 300,000 tested, 1.2% active; AID 540256; active means well fitted inhibition curve with a large enough effect; inconclusive means small, poorly fitted or top-dose-only effect, or effect the other way; inactive means flat fitted curve, though single readings scatter; tested in HEK293 cells; further: on the % scale 0 is the no-effect control and ±100 the full control effect; nearly all actives have a fitted effect of over 50% in size; luciferase read-out
SARS PLpro yeast – SARS-CoV PLP inhibition in yeast. Potency, µM (top dose mostly 32.9 µM), for the others: top-dose activity, positive = growth rescue. S. cerevisiae expressing SARS-CoV PLpro, growth rescue; control for the full effect not named in the record. 330,000 tested, 0.19% active; active means well fitted rising curve with a large enough effect; inconclusive means small, poorly fitted or top-dose-only effect; inactive means no such curve, though single readings can be large or run the other way; further: 0% is about no effect; nearly all actives have a fitted effect of over 55% in size; growth read by luminescence after 48 h
* = called active by the depositor; ? = inconclusive; · = not tested or not shown; & = joins results of further samples; [ ] = another dose, or the depositor's remark. Unless noted, the call rests on the fitted dose curve; in most records, active means well fitted curve in the direction sought with a large enough effect; inconclusive means small, poorly fitted or top-dose-only effect, or another doubt; inactive means no such curve, though single readings can be large; an effect the other way counts as inactive or inconclusive. Potency means the concentration at half of the fitted maximal effect.

SMILES | StopGo reporter | MARV entry inh | RE007 growth inh | NS1 function inh | Cruzain noTriton | Cruzain inh Det | LASV entry inh | SARS PLpro yeast
O=C(c1cccs1)N1CCN(Cc2cccnc2)CC1 | 11.1% | 0.2% | 10.2% | 1.1% | -1.9% | 0.0% | 25.7% | 15.2%
CCOc1ccc(C(=O)N[C@H](C(=O)O)C(C)C)cc1 | 11.4% | 0.3% | -0.7% | 3.3% | -9.3% | 8.4% | -10.6% | -2.3%
COCC1CCN(C(=O)C2CCC(=O)N(CCc3cccc(F)c3)C2)CC1 (stereo not drawn) | 21.7% | ? | 7.0% | 4.3% | · | · | -14.5% | -1.6%
COC(=O)c1ccccc1OCc1cccc(C)n1 | -8.7% | 27.6%&27.6%[46.1 µM] | -24.6% | -14.7% | -8.7% | 2.0% | 2.0% | 11.7%
CS(=O)(=O)c1ccc(C(=O)N2CCN(C(=O)c3ccco3)CC2)cc1 | -10.0% | 7.4% | 4.5% | · | · | · | 14.7% | -0.8%
O=C(Nc1ccc(Cl)cn1)c1cccnc1 | 26.9% | -18.4%[46.1 µM] | -4.7% | -3.0% | -10.7% | 1.7% | -14.1% | -2.8%
CC(=O)c1cccc(NC(=O)C2C(c3ccccc3)C2(Cl)Cl)c1 (stereo not drawn) | -28.6% | -22.1%[46.1 µM] | -10.9% | -11.6% | · | · | 3.8%[46.1 µM] | -2.3%
O=C(COC(=O)Cn1cnc2ccccc2c1=O)Nc1ccc(Cl)c(C(F)(F)F)c1 | -11.7% | -11.7% | 3.7% | 5.1% | ? | -1.8% | -2.8% | 14.9%
Cc1ccc(C(=O)OCC(=O)c2ccc[nH]2)s1 | 48.1%[activator] | ? | 3.0% | 0.0% | · | · | 14.7% | -0.2%
CC(C)C(=O)Nc1cccc(C(=O)Nc2nnc(C(C)C)s2)c1 | -3.1% | ? | -5.4% | 9.1% | 14.1% | -0.7% | -15.0% | 8.5%
CCC(C)(C)C(=O)Nc1ccc(C(N)=O)cc1 | -10.8% | ? | 10.5% | 3.4% | 1.6% | 4.5% | 10.2% | 4.7%
O=Cc1cccn1-c1c(C(=O)O)cnn1-c1ccccc1 | 10.6% | -19.8%[46.1 µM] | -6.4% | · | · | · | -10.8%[46.1 µM] | -2.0%
CN(Cc1cnccn1)Cc1nc(Cc2cccc(F)c2)no1 | -4.2% | ? | -16.4% | 0.8% | · | · | ? | 0.1%
O=C(c1cc(COc2cccc(C(F)(F)F)c2)on1)N1CCC(c2ccncc2)CC1 | -1.8% | · | -17.8% | -1.7% | · | · | · | -4.2%
Cc1ccc(SCC(=O)Nc2cccc(-c3nc4cc(Cl)ccc4o3)c2C)cc1 | 38.5%[activator] | 1.5%[46.1 µM] | · | · | -2.9% | -2.3% | 21.1%[46.1 µM] | ·

The list goes on, overlapping the part above by 4 compounds.
SMILES | StopGo reporter | MARV entry inh | RE007 growth inh | NS1 function inh | Cruzain noTriton | Cruzain inh Det | LASV entry inh | SARS PLpro yeast
O=Cc1cccn1-c1c(C(=O)O)cnn1-c1ccccc1 | 10.6% | -19.8%[46.1 µM] | -6.4% | · | · | · | -10.8%[46.1 µM] | -2.0%
CN(Cc1cnccn1)Cc1nc(Cc2cccc(F)c2)no1 | -4.2% | ? | -16.4% | 0.8% | · | · | ? | 0.1%
O=C(c1cc(COc2cccc(C(F)(F)F)c2)on1)N1CCC(c2ccncc2)CC1 | -1.8% | · | -17.8% | -1.7% | · | · | · | -4.2%
Cc1ccc(SCC(=O)Nc2cccc(-c3nc4cc(Cl)ccc4o3)c2C)cc1 | 38.5%[activator] | 1.5%[46.1 µM] | · | · | -2.9% | -2.3% | 21.1%[46.1 µM] | ·
COc1ccc(-n2c(SCC(=O)NCc3ccccc3)nc3c([nH]c4ccccc43)c2=O)cc1 | ? | · | · | · | 18.4% | -3.8% | -6.7%[46.1 µM] | ·
CN(C)S(=O)(=O)c1cc(C(=O)O)c(NC2CCCCC2)cc1Cl | 26.8% | -9.5% | -0.9% | 11.8% | 10.8% | -6.8% | 8.2% | 1.2%
N#Cc1nnn2c1nc(N)c1c(F)cccc12 | 2.9% | 1.4%[46.1 µM] | 15.3% | · | · | · | 1.3% | ·
CN(C)CCNS(=O)(=O)c1ccc(N2CCN(c3ccc(F)cc3)CC2)c([N+](=O)[O-])c1 | ? | 18.4µM* | 1.5% | -15.3% | -8.2% | -0.7% | ? | 5.4%
O=C(NCC(c1ccco1)N1CCN(c2ccc(F)cc2)CC1)C(=O)NC1CCCC1 (stereo not drawn) | -14.6% | -18.0% | 7.5% | · | · | · | 1.0% | 0.3%
Cc1ccc(CNC(=O)Cn2ccc3cc(S(=O)(=O)N4CCCC4)ccc32)o1 | -12.5% | · | 7.7% | 1.9% | · | · | · | 0.8%
CN(C)CCCN(C(=O)c1ccc(C(=O)c2ccccc2)cc1)c1nc2c(F)cccc2s1 | ? | ? | -8.1% | -24.8% | · | · | ? | -2.2%
CCOC(=O)N1CCN(C(=O)CSCc2ccc(Br)cc2)CC1 | -0.5% | ? | 2.2% | -11.4% | · | · | ? | -0.9%
O=C1OC(c2ccc3c(c2)OCO3)=N/C1=C\c1ccc(C(=O)O)cc1 | -19.0% | -2.5%[46.1 µM] | -4.0% | 4.0% | · | · | 14.3%[46.1 µM] | 0.4%
COc1ccc(OCCNS(=O)(=O)c2ccccc2)cc1 | 9.4% | -1.4% | -1.8% | -2.6% | -0.1% | -1.2% | 12.0% | 3.4%
O=C(NC1=NCCS1)c1ccccc1 | 39.1%[activator] | -0.5% | 10.4% | 2.4% | · | · | ? | -4.3%
COc1cccc(N2CCN(C(=O)Nc3ccc4c(c3)NC(=O)CO4)CC2)c1 | -24.9% | 7.2% | 0.2% | 29.5% | -16.2% | 5.2% | 0.0% | -2.1%
C[C@H](NC(=O)OCc1ccccc1)c1nnc([C@H](Cc2ccccc2)NC(=O)OC(C)(C)C)o1 | -23.9% | · | -3.5% | -6.5% | · | · | · | 0.6%
CCOc1ccc2nc(NC(=O)c3c([N+](=O)[O-])cnn3CC)sc2c1 | 5.8% | -4.5% | -3.4% | -0.3% | -1.6% | -2.0% | 15.8% | 3.0%
Cc1cc(=O)oc2c3c(cc(OCC(=O)N[C@H](C(=O)O)c4ccccc4)c12)OC(C)(C)CC3 | -11.6% | · | 3.5% | 20.5% | · | · | · | -4.0%
Cc1ccc(C)c(NC(=O)NNS(=O)(=O)c2ccc(C)c(C)c2)c1 | -8.8% | · | 16.2% | -0.5% | · | · | · | -1.0%
COC(=O)NCc1ccc2c(c1)OCO2 | -3.5% | 19.9% | -9.5% | -6.6% | -1.1% | 1.6% | -22.4% | -7.3%
CCc1ccccc1NNC(=O)c1snnc1C | -13.4% | ? | 133.8% | -8.0% | · | · | ? | -3.1%
Cc1cc(OCC(=O)OCC(=O)N(C)c2c(N)n(Cc3ccccc3)c(=O)[nH]c2=O)ccc1Cl | -22.6% | 10.5% | 5.7% | · | · | · | 27.2% | ·
CC1CCn2c(nc3cc(C(=O)NCCc4ccccc4)ccc32)C1 (stereo not drawn) | 0.0% | · | · | · | -15.9% | 2.7% | -13.8%[46.1 µM] | ·
CC(=O)N1c2ccc(S(=O)(=O)N3CCOCC3)cc2CC1C (stereo not drawn) | 4.8% | 29.5%[46.1 µM] | -13.4% | -1.4% | · | · | -14.4%[46.1 µM] | 11.1%
Cc1ccc(C)c(S(=O)(=O)N2CCCC2CNC(=O)c2ccc([N+](=O)[O-])cc2)c1 (stereo not drawn) | ? | ? | -12.1% | · | · | · | ? | -4.4%
Cc1cc(C)c2c(c1)/C(=N/NC(=S)Nc1ccc(F)cc1)CCC2 | -3.1% | -22.7% | 28.1% | -8.3% | 15.8µM* | -8.5% | ? | 2.8%
COc1ccc(C2(C(=O)Nc3ccc(C)c(C)c3)CCOCC2)cc1 | -15.3% | ? | -14.1% | -2.7% | · | · | ? | 2.0%
O=c1cc(CO)oc(CN2CCN(c3cccc(C(F)(F)F)c3)CC2)c1O | -18.0% | -15.5% | 2.5% | 0.5% | -7.9% | 4.3% | 11.6% | 13.3%
COc1ccc(Cl)cc1C(=O)NCC#N | -0.1% | -1.3% | -3.0% | -6.6% | -5.8% | -9.1% | 11.8% | 3.4%
CCOC(=O)c1ccc(N2C(=O)c3[nH]nc(-c4ccc(C)cc4)c3C2c2ccc(O)c(OCC)c2)cc1 (stereo not drawn) | ? | ? | · | · | ? | -4.6% | ? | ·
CC1(C)CC(=O)C2=C(C1)N(c1ccc(F)cc1)C(=O)C2(NC(=O)c1ccccc1)C(F)(F)F (stereo not drawn) | · | 2.3% | · | 10.1% | -9.9% | -0.6% | 3.5% | -0.3%
O=C1[C@@H]2Cc3c([nH]c4ccccc34)C(c3ccccc3)N2C(=O)CN1C1CC1 (stereo partly drawn) | -6.7% | ? | 9.7% | -2.5% | · | · | -16.4% | 0.1%
O=C1CN(C(=O)COC(=O)c2ccccc2NC(=O)c2ccco2)c2ccccc2N1 | -20.1% | ? | 20.3% | -1.1% | -8.9% | -1.2% | -12.2% | ?
CC(C)CC(=O)N1CCC(N(CCc2ccccc2)Cc2ccccc2)CC1 | -19.0% | · | 5.6% | 1.1% | · | · | · | -1.4%
CCCCc1ccc(NS(=O)(=O)N(C)C)cc1 | 13.8% | ? | 3.5% | -77.3% | 4.3% | -1.3% | -8.8% | -20.6%
COc1ccccc1N(O)C1CC(=O)N(c2ccc(Br)cc2)C1=O (stereo not drawn) | 47.7%[activator] | 0.0% | -13.2% | -16.7% | ? | -8.2% | -7.3% | -20.5%
O=C(CSc1ccc(Cl)cc1)NC1CCCc2ccccc21 (stereo not drawn) | -14.9% | -19.1% | -0.8% | -7.7% | -3.6% | -4.4% | 6.0% | 22.2%
O=C(Nc1ccc(C(=O)N2CCCCC2)cc1)c1ccc(Br)cc1 | -7.4% | 4.2% | 20.0% | -11.2% | 0.3% | -1.6% | 7.0% | -3.2%

Rows were taken by chance; about 4.5% have a hit in one of these screens.
